Compound activity deposited in PubChem BioAssay by National Center for Advancing Translational Sciences (NCATS).
gsp antag = qHTS for Antagonists of gsp, the Etiologic Mutation Responsible for Fibrous Dysplasia/McCune-Albright Syndrome: qHTS; gsp-mutant cells, cAMP HTRF, 30 min; control for the full effect not named in the record; Potency, µM (highest dose often 76.9 µM), without a hit: at the top dose activity change, negative = inhibition, usual class: inhibitors; 0.4% of 340,000 active; active = falling curve of any shape with a large fitted effect; inconclusive = falling curve, mostly with a smaller effect; inactive = flat or rising curve; cell line not stated here;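 also: intracellular cAMP measured with PDE inhibitor Ro 20-1724 present during compound exposure; potency is read from the fitted curve at half-maximal effect; % is scaled to controls: 0 for no effect and ±100 for the full control effect; nearly all actives have a fitted effect of over 65% in size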
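HTRF cAMP measurement after 30 min RT detection following 30 min, 37C compound treatment alongside […] (added as 300 uM solution) in G418-selected cells seeded at 2000/well and grown 16–24 h.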
ClpP mod = qHTS Assay for Activators of ClpP | purified B. subtilis ClpP, FRET peptide cleavage, 20 min | Potency, µM (titrated, usually from 57.5 µM), inactives show at the top dose activity change, negative = active | 1.9% of 340,000 active | AID 651965, 2013; active = well fitted falling curve with a large enough effect; inconclusive = small, poorly fitted or top-dose-only effect; inactive = no such curve, though single readings can be large or run the other way; also: potency is read from the fitted curve at half-maximal effect; the source files actives as falling curves though it sought activators and does not explain the sign; nearly all actives have a fitted effect of over 65% in size; many hits overshoot -100%
Target sequence (P80244 whole entry, looked up): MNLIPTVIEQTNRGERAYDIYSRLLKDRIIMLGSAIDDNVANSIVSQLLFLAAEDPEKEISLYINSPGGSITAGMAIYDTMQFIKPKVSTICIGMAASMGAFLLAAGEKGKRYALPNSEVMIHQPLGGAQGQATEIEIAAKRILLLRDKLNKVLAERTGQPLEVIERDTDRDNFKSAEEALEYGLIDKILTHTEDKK
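ClpP 10 microg/mL final, pH 8 Tris/KCl buffer with BSA, glycerol, Tween-20; compound pinned in; FRET-FV substrate; RT 20 min; Ex320/Em430; ΔFRET vs ADEP 5.8 microM, DMSO, no enzyme.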
D2 PAM = Beta-Arrestin HTS for Positive Allosteric Modulators of the Human D2 Dopamine Receptor: Potentiators. potentiation, % (no concentration beside the values). 0.23% of 360,000 active. DiscoveRx D2 beta-arrestin cells, luminescence, 90 min; 100% = 57 uM dopamine signal. AID 624464, 2012; active = potentiation of 50% or more; inconclusive = 30% to 50%; inactive = 30% or less;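 also: compound concentration not given in the record; tested on top of an EC20 dose of dopamine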
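PathHunter beta-arrestin assay in DiscoveRx D2 cells. Compounds were added with an EC20 of dopamine (50 nM final) for 90 min at 37 deg C. Luminescence was read 1 h after detection reagent, with 57 uM dopamine as the EC100 control.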
Menin-MLL FL inh = qHTS Assay for Inhibitors Targeting the Menin-MLL Interaction in MLL Related Leukemias: Competition With Fluorescein Labeled MLL-derived Peptide; Fluorescence polarization, fluorescein-MLL peptide displacement from menin; FP activity change, % at 61.4 µM; 290,000 tested, under 10 active; inconclusive = falling polarisation curve, or a change in total fluorescence; inactive = total fluorescence flat and polarisation flat or rising; no compound was filed as active; the % refers to the polarisation; negative = inhibition;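 also: % of control where 0% means no effect; inhibitors lower the polarisation; unlabelled MLL peptide was the positive control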
TRPV1 PAM = HTS Assay for Compounds that Act as Potentiators of the Vanilloid Receptor 1; Transient receptor potential cation channel subfamily V member 1 (Homo sapiens), Q8NER1; TRPV1-expressing cells, Fluo-8 calcium influx, capsaicin EC20 potentiation; host cell line not named in the record; control for the full effect not named in the record; potentiation, % at 8.33 µM; 0.02% of 320,000 active; AID 540277, 2011; active means potentiation above 80%; inconclusive means 30% to 80%; inactive means below 30%; also: 0% is about no effect
Target sequence (Q8NER1 whole entry, looked up): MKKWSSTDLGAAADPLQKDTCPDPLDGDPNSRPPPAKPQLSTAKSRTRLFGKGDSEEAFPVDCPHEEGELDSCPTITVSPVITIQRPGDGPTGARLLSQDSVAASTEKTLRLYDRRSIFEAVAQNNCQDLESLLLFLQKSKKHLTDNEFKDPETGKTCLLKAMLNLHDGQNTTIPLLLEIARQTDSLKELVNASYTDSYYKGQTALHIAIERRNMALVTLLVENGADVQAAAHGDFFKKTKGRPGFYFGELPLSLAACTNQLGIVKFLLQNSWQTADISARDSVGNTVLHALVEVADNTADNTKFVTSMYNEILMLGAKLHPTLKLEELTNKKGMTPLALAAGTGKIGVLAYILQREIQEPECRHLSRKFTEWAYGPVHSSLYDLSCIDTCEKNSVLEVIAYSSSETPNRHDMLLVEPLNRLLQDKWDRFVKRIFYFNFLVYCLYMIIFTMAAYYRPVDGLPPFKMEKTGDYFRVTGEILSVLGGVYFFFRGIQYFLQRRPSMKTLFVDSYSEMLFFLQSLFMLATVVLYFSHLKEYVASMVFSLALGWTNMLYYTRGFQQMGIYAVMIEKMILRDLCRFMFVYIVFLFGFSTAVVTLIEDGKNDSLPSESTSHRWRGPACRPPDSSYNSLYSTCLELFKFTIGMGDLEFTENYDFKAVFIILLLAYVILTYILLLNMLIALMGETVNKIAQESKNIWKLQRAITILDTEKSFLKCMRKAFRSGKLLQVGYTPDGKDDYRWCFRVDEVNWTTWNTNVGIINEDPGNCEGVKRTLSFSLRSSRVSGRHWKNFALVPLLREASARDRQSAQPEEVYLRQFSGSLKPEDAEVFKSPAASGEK
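TRPV1-expressing cells were cultured overnight at 35.5C and loaded with Fluo-8 calcium dye for 40 to 90 min at room temperature. After a 10 s baseline, compound was added and calcium influx was read kinetically for 3 min (ex 480/em 520 nm).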
gsp ag = qHTS for Agonist of gsp, the Etiologic Mutation Responsible for Fibrous Dysplasia/McCune-Albright Syndrome: qHTS. 0.13% of 340,000 active. gsp mutant cells, cAMP HTRF, 30 min; control for the full effect not named in the record. Potency, µM (top dose mostly 76.9 µM), without a hit: top-dose activation (cAMP increase), most hits filed as activators; active = well fitted activation curve with a large enough effect; inconclusive = small, poorly fitted or top-dose-only effect, or another doubt; inactive = no such curve, though single readings can be large or run the other way; cell line not stated here;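 also: phosphodiesterase inhibitor Ro 20-1724 added with compounds to block cAMP breakdown; potency is read from the fitted curve at half-maximal effect; nearly all actives have a fitted effect of over 60% in size; about a fifth of the inactives were tested at one dose only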
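Cells in DMEM/10% FBS with G418 were pretreated with compounds in DMSO plus […] (300 uM stock) for 30 min at 37C. cAMP was measured by HTRF (cAMP-d2 plus anti-cAMP antibody-K) after 30 min at room temperature.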
Sfp inh = qHTS Assay for Inhibitors of Bacillus subtilis Sfp phosphopantetheinyl transferase (PPTase) | 3.5% of 310,000 active | 4'-phosphopantetheinyl transferase ffp (Bacillus subtilis), Q9F4F7 | Biochemical Sfp PPTase activity, qHTS | Potency, µM, for the others: max response, negative = inhibition, most hits filed as inhibitors; active = well fitted inhibition curve with a large enough effect; inconclusive = small, poorly fitted or top-dose-only effect, or another doubt; inactive = no such curve, though single readings can be large or run the other way;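 also: the enzyme is Sfp with the accession as filed and its product quenches rhodamine fluorescence; potency is read from the fitted curve at half-maximal effect; 0% = enzyme reaction without inhibitor and -100% = no enzyme wells; top concentration of the series not given in the record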
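After 15 min at room temperature with compound, 15 nM Sfp received 5 uM rhodamine-CoA plus 12.5 uM BHQ-2-ybbR (50 mM Hepes pH 7.6, 10 mM MgCl2). Rate came from the fluorescence difference over 30 min, ex 525/em 598 nm.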
Starred values were filed as active, the others as inactive; ? = inconclusive; . = not tested or not shown; & = joins results of further samples; [ ] = dose if it differs, or a comment.

The line under a structure holds: gsp antag	ClpP mod	D2 PAM	Menin-MLL FL inh	TRPV1 PAM	gsp ag	Sfp inh
- COCCOc1cc(NC(=O)CS(=O)CC(=O)N(C)C)c(Cl)cc1Cl (stereo not given)
 : 1%	.	1	-2.1	-2	-27%	12%
- Cn1c(CCC(=O)OCC(=O)NCc2ccc3c(c2)OCO3)nc(=O)c2ccccc21
 : 7%	-0.1%	-1	0.4	-7	2%	9%
- CC(C(=O)Nc1cccnc1)C1Sc2ccccc2NC1=O (stereo not given)
 : 5%	-1.9%	-4	2.0	1	-24%	-23%
- c1ccc(COc2cccc(CN3CCCCC3)c2)cc1
 : -8%	-2.8%	-5	-2.4	-14	3%	-7%
- COc1ccc(NC(=O)[C@@H]2CC=C[C@@H]3CCN(Cc4ccccc4)C(=O)[C@@H]32)cc1
 : -10%	-1.4%&2.6%	-11	.	.	?	.
- Cc1cccc(NC(=O)c2nc[nH]c2C(=O)N[C@@H](CCCCNC(=O)OC(C)(C)C)C(=O)OC(C)(C)C)c1
 : -4%	-7.3%	-17	-1.5	13	-26%	17%
- CCc1ccc(-c2cc(C)no2)cc1S(=O)(=O)NCc1ccco1
 : -5%	2.3%&-1.1%	0	0.6	11	-7%	-1%
- Cc1ccc(-c2nn(C)c(=O)c3ccccc23)cc1CO
 : -4%	-1.8%	-5	-1.6	2	15%	6%
- Cc1ccccc1CCN(C(=O)CN1C(=O)c2ccccc2S1(=O)=O)C(C(=O)NCC1CCCO1)c1ccncc1 (stereo not given)
 : -14%	?	-21	2.3	1	12%	13%
- CC[C@H]1OC(=O)[C@H](C)[C@@H](O[C@H]2C[C@@](C)(OC)[C@@H](O)[C@H](C)O2)[C@H](C)[C@@H](O[C@@H]2O[C@H](C)C[C@H](N(C)C)[C@H]2O)[C@](C)(O)C[C@@H](C)[C@@H]2N[C@@H](COCCOC)O[C@H]([C@H]2C)[C@]1(C)O
 : 4%	-0.1%	5	-0.5	-12	.	-14%
- Cn1c(=O)[nH]c(=O)c2c1nc(NCCCO)n2Cc1ccc(F)cc1
 : -1%	-0.1%	5	3.2	?	-1%	7%
- CC12CCC(C(=O)N(NC(=O)c3cccnc3)C1=O)C2(C)C (stereo not given)
 : -4%	-0.5%	12	.	-10	-1%	20%
- O=C(COC(=O)c1ccc([N+](=O)[O-])cc1Cl)NC(=O)c1ccccc1
 : 6%	1.0%	23	.	-3	-13%[15.4 µM]	.
- O=C(CCCN1CCC(C(=O)c2ccc(F)cc2)CC1)c1ccc(F)cc1
 : 11%	-6.2%	-5	-3.1&3.3	-3	-1%	16%&5%
- COc1ccccc1Nc1nc(-c2cccc(N3C(=O)c4ccccc4C3=O)c2)cs1
 : 17%	1.0%	-16	6.9	4	-36%[inhibitor]	0%
- CC(C)c1ccccc1NC(=S)N(C)C
 : 2%	.	-10	-0.5	.	11%[15.4 µM]	?
- CC(=O)Nc1ccc(NC(=O)c2cc(=O)c3ccccc3o2)cc1
 : -5%	-6.6%	-3	2.5	-18	?	13%
- Cc1cc(C(F)(F)F)nn1CC(=O)NNC(=S)Nc1ccc(F)cc1
 : 6%	0.8%	-5	0.0	-8	-65%	1%
- COc1cccc(CN2CC(C(=O)N(C)C3CCOCC3)CCC2=O)c1 (stereo not given)
 : 9%	.	-8	-1.9	1	5%	14%
- Cc1ccc(CSc2nc3ccsc3c(=O)n2Cc2ccccn2)cc1
 : -17%	-2.1%	-8	4.9	3	-47%[inhibitor]	0%
- O=C(NC(Nc1nc2ccc([N+](=O)[O-])cc2s1)(C(F)(F)F)C(F)(F)F)c1ccccc1
 : 4µM*	2.0%	11	10.0	-16	-5%	7%
- CC(C)Cn1c(=O)c(C(=O)NCc2ccc3c(c2)OCO3)c(O)c2ccccc21
 : -4%	?	2	-6.6	-6	-5%	-1%
- CCOc1ccccc1N(C)S(=O)(=O)c1ccc2[nH]cc(C(=O)N(CCOC)CCOC)c(=O)c2c1
 : 5%	.	-1	0.6	6	-33%[inhibitor]	20%
- c1cnn(Cc2cnc(N3CCOCC3)s2)c1
 : 7%	.	-3	4.0	10	-15%	8%
- Cc1cc(C)c(NC(=O)c2cnn(C)c2)c(C)c1
 : 6%	-0.8%	10	2.5	-5	-16%	6%
- CSc1cccc(NS(=O)(=O)c2ccccc2)c1
 : 8%	-0.9%	0	2.3	12	9%	2%
- O=C(CCNS(=O)(=O)c1ccccc1)N1CCN(c2ccccc2F)CC1
 : 3%	0.7%	-10	.	-4	7%	8%
- CCOC(=O)c1ccc(NC(=O)COc2ccc(S(=O)(=O)NC(C)C)cc2)cc1
 : 0%	0.7%	0	0.2	-8	-12%	26%
- COc1cc(C(=O)N2CCN(S(=O)(=O)c3ccc(F)cc3)CC2)cc(OC)c1OC
 : -8%	0.0%	4	0.1	-20	8%	3%
- Cc1ccc(C(=O)NCCc2nnc3ccc(SCC(=O)Nc4cc(C)on4)nn23)cc1
 : 7%	.	-2	-3.3	-24	?	6%
- Cc1cccc(OCC(=O)N(Cc2cccs2)C2CCS(=O)(=O)C2)c1C (stereo not given)
 : -5%	-1.1%	-2	1.8	-13	-22%	-7%
- COC(=O)C1=C(O)/C(=C\c2ccc(O)c(OC)c2)N=C1C
 : -23%	-13%	-9	?	1	-4%	-4%
- CC1Cc2cc(/C(O)=C3/C(=O)C(=O)N(CCCn4ccnc4)C3c3ccc(Br)cc3)ccc2O1 (stereo not given)
 : 4%	-0.7%	-6	-1.3	0	?	26%
- CCCCNC(=S)N(CCCN(C)C)Cc1cc2cc3c(cc2[nH]c1=O)OCO3
 : 3%	4.6%	-47	-5.3	-5	-25%	-2%
- O=C(Cn1cccc1C(=O)c1ccccc1)NCCN1CCOCC1
 : 2%	0.8%	-4	-0.2	-25	7%	-1%
- Cc1cccc(OCCCC(=O)Nc2ccc(S(=O)(=O)Nc3ncccn3)cc2)c1C
 : -12%	0.7%	10	.	1	21%	10%
- O=C(COc1ccc(S(=O)(=O)N2CCCCC2)cc1)NCc1cccnc1
 : 2%	0.2%	0	-3.1	11	?	9%
- CCC1CCCCN1C(=O)CSc1nc2c([nH]c3ccccc32)c(=O)n1C (stereo not given)
 : -28%	-5.9%	-10	-1.5	-12	29%	-3%
- COc1ccc(NC(=O)C2CCCN(C(=O)c3ccc(Cl)cc3)C2)cc1S(=O)(=O)N(C)C (stereo not given)
 : -19%	-0.6%	-1	.	-2	-52%[inhibitor]	.
- COc1ccc(COc2ccsc2C(=O)Nc2ccc(Cl)cc2)cc1
 : 4%	69%	-10	-1.1	12	-1%	10%
- Cc1ccc(C)c(NC(=O)CSc2nc(=O)n(CCN3CCOCC3)c3c2CCCC3)c1
 : 2%	0.9%	-6	.	1	0%[15.4 µM]	.
- CN(C)C(=O)COC(=O)c1cccc(CN2C(=O)c3ccccc3C2=O)c1
 : -5%	.	0	-8.4	-4	12%[15.4 µM]	13%
- CC(=O)c1c(C)nc2ccccc2c1N
 : -9%	-3.0%	-9	2.1	2	11%	18%
- CCn1c(SCC(=O)Nc2nc3c(s2)CCCC3)nnc1-c1ccccc1
 : -7%	-0.7%	-7	-0.1	21	18%	-8%
- Cc1ccc(/C=C/C(=O)OCC(=O)NCc2ccc(Cl)cc2)o1
 : 5%	0.1%	-2	.	8	9%	.
- COc1ccc(NC(=O)/C(C#N)=C\c2cc(OC)c(OCc3ccc(C(=O)O)cc3)cc2Br)cc1
 : -26%	.	7	?	?	-3%[15.4 µM]	0%
- O=C(Nc1nc2ccccc2s1)c1cc2c(s1)-c1ccccc1OC2
 : -5%	3.9%	-6	2.5	-20	-34%[inhibitor]	17%
- Cc1[nH]c2ccc(C(C)C)cc2c1CC(=O)O
 : -7%	.	-5	1.1	-3	-6%[15.4 µM]	1%
- Cc1ccc(/C(O)=C2\C(=O)C(=O)N(CCc3c[nH]c4ccccc34)C2c2cccnc2)cc1 (stereo not given)
 : 15%	0.3%	-12	-0.3	9	?	12%
- O=C(Cn1cnc([N+](=O)[O-])n1)NC1CC1
 : 12%	0.3%	-27	3.5	-3	-7%	20%
- N#C/C(=C/c1ccc(-c2ccc([N+](=O)[O-])cc2)o1)C(=O)Nc1nc(-c2cccs2)cs1
 : -1%	.	5	.	.	?	.
- Cc1ccc2nnc(Cl)n2n1
 : -5%[15.4 µM]	?	-14	-0.5	-1	?	2%
- CCOC(=O)Cc1csc(NC(=S)NC(=O)CC(C)C)n1
 : 1%	.	-11	3.1	12	-30%	-10%
- CCN(C(=O)COC(=O)CCC(=O)c1cccs1)c1c(N)n(Cc2ccccc2)c(=O)[nH]c1=O
 : 9%	-1.8%	-3	.	0	0%	.
- CC(=O)Oc1ccc(N(C(C)=O)S(=O)(=O)c2cc([N+](=O)[O-])ccc2C)cc1
 : ?	-22%	-7	-3.0	-1	24%	-6%
- CCC1Sc2ccc(S(=O)(=O)Nc3ccc(OC)c(OC)c3)cc2NC1=O (stereo not given)
 : 5%	.	-3	-0.3	15	8%	-1%
- COc1cc(NC(=O)c2cnn3c(C(F)F)cc(C4CC4)nc23)c(OC)cc1Cl
 : 1%	0.5%	-3	0.2	11	-13%	20%
- CCOc1ccc(Br)cc1S(=O)(=O)Nc1ccc(C(=O)OCC(=O)Nc2ccc(C#N)cc2)cc1
 : -13%	-8.2%	-14	0.5	0	7%	24%
- CC(C)CCNC(=O)c1ccc(OC2CCN(S(=O)(=O)N(C)C)CC2)cc1
 : .	.	2	-4.5	15	25%[15.4 µM]	3%
- COc1ccccc1OCC(=O)Nc1sc2c(c1C(N)=O)CCC2
 : ?	22%	-7	.	.	-15%	.
